# INS promoter inh – TRM-6 insulin promoter activity inhibition; TRM-6 cells (human fetal islet line), insulin promoter-eGFP reporter, imaging; reporter expression induced with tamoxifen; inhibition, % at 2 µM; 0.9% of 130,000 active; AID 1273;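 active means inhibition above the mean plus 3 SD, with well images judged a real hit on visual review, cut at about 60% in these data, passing the limit was not always enough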
# GALR2 ag – agonists of human galanin receptor 2 (GALR2); O43603; GALR2-expressing cells, agonist activation read-out; activation, %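 (tested at 5 µM)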; 0.48% of 140,000 active;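 active means above mean plus 3 SD of all compounds, about 5% in these data, not always enough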;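 further: 0% = vehicle buffer wells and 100% = reference agonist at full effect; tested in CHO reporter cells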
# Target sequence (O43603 whole entry, looked up): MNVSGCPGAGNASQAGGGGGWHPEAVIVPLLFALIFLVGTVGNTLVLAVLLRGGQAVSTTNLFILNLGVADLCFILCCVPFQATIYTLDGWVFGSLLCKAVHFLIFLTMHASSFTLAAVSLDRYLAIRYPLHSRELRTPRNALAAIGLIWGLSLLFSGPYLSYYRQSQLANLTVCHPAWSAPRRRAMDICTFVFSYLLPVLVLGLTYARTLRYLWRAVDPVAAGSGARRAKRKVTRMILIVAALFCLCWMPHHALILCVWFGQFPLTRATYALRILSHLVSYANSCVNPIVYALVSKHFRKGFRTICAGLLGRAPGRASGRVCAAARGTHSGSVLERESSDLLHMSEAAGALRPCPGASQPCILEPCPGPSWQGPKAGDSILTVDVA
# HSV replic up – HSV replication enhancement. AID 1956. maximum fold increase. HSV replication augmentation in cells, fold increase. 0.005% of 220,000 active;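 active means peak rise of 1.5-fold or more in the series; tested in PC3 cells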;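 further: first round at 10 µM; read as green reporter fluorescence; hits show the peak of a series up to 25 µM; 1 = signal of infected wells without compound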
# RGS16-Gao HTS – RGS16-Galphao interaction regulator (human) | binding response (% of control), % at 10 µM | 0.38% of 220,000 active | O15492+P09471 | bead-based flow cytometry RGS16-Galphao binding, fluorescence; actives lie on both sides | AID 1441;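 active means below 25% or above 175%, edge rows of some plates excepted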;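 further: Galphao activated by GDP with aluminum fluoride before binding; 100% = wells without compound and 0% = beads without RGS; some results beyond the cut were filed as inactive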
# Target sequence (O15492 whole entry, looked up): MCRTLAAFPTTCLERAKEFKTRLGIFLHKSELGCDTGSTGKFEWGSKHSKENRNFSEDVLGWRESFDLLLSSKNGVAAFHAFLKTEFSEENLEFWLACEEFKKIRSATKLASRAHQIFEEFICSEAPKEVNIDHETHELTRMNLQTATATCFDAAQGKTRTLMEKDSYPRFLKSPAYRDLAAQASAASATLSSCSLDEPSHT
# Target sequence (P09471 whole entry, looked up): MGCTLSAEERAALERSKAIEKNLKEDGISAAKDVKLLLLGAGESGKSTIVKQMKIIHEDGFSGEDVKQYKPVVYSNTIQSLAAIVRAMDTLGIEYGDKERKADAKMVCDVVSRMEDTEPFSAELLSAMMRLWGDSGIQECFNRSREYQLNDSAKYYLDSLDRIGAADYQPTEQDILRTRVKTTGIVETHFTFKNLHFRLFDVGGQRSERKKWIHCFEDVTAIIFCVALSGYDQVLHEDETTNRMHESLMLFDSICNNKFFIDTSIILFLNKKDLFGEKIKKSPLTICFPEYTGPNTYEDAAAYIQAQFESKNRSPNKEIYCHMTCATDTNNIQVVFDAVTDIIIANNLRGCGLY
# PKD1 kinase inh – inhibitors of human PKD1 kinase; Q15139; PKD1 kinase fluorescence polarization assay; inhibition, %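 (about 10 µM by stock and volumes)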; 0.056% of 200,000 active;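 active means inhibition of 50% or more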;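 further: controls were vehicle for no effect and a reference inhibitor for full effect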
# INS promoter inh cell count – further read-out of INS promoter inh, marked with its call; normalized cell count, %; measured here: cell count, toxicity; reference of the scale not given here;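 cells exposed to compound for 48 h; stained nuclei by imaging scaled within each plate; lower means fewer cells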
# HSV replic up primary fold – further read-out of HSV replic up, marked with its call; fold increase; compound at 10 µM; measured here: primary screen fold increase 10 uM; tested in PC3 cells;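 GFP signal in the first replicate; 1 = infected wells without compound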
# Active calls of the source: *; i = inactive; nt = no result given.
# Order of results – PKD1 kinase inh	INS promoter inh	INS promoter inh cell count	GALR2 ag	RGS16-Gao HTS	HSV replic up	HSV replic up primary fold
> OC(c1ccccn1)c1c[nH]c2ccccc12 (stereo not given)
→ 9	nt	nt	-3.0	78	i	0.9
> Cn1cc(C(=O)C(=O)N2CCCc3ccccc32)c2ccccc21
→ 1	nt	nt	nt	102	i	0.74
> COc1ccc(C2/C(=C(\O)c3ccc(OC)c(Cl)c3)C(=O)C(=O)N2CCN(C)C)cc1 (stereo not given)
→ 2	-27	99	-1.4	103	i	0.83
> O=C(C1=C[C@@H]2[C@H]3C(=O)N(c4ccc(Cl)cc4)C(=O)[C@H]3[C@@H](C(=O)c3ccc(Cl)cc3)N2C=C1)c1ccccc1
→ -9	nt	nt	0.1	89	i	0.91
> CN1CCN(c2ccc(C(=O)c3ccc(F)cc3)cc2)CC1
→ 11	-3	97	-1.8	88	i	0.89
> O=S(=O)(NCCOC12CC3CC(CC(C3)C1)C2)c1cccc2nsnc12
→ 4	-195	148	-1.8	104	i	0.97
> COc1cc(OC)cc(C(=O)NNC(=O)CCc2ccccc2)c1
→ 9	-40	109	nt	106	i	1.1
> COC(=O)c1ccc(Oc2nc(NC(C)(C)C)nc(N3CCOCC3)n2)cc1
→ -4	36	85	nt	111	i	0.99
> CCCn1c(SCC(=O)Nc2c(C)cccc2C)nnc1C(C)C
→ -9	-108	99	-2.2	104	i	1
> CCOC(=O)Cn1c(=O)oc2cc(S(=O)(=O)N3CCCc4ccccc43)ccc21
→ -8	nt	nt	-2.7	101	i	0.89
> CC(=O)c1c(C)[nH]c(C(=O)N2CCc3ccccc32)c1C
→ -4	21	101	0.2	100	i	1
> C/C(Cn1nc([N+](=O)[O-])cc1C)=N\NC(=O)COc1ccc(Cl)cc1Cl
→ 15	nt	nt	-0.4	102	i	1
> COC(=O)c1cccnc1NC(=S)NC(C)C
→ -2	nt	nt	nt	89	i	0.94
> CCOc1nc(C)cc(C)c1S(=O)(=O)c1ccc(Cl)cc1
→ -8	nt	nt	nt	104	i	1
> Nc1oc2ccccc2c(=O)c1C=O
→ 10	27	90	-1.0	106	i	0.84
> CC(C)N1CCC(N2CCN(Cc3ccc(-c4ccc(Cl)cc4)o3)CC2CCO)CC1 (stereo not given)
→ 10	nt	nt	nt	100	i	1.3
> Cn1c(SCc2n[nH]c(=S)n2-c2ccccc2)nnc1-c1ccccc1
→ 1	nt	nt	-1.1	101	i	1.1
> CCn1c(COc2ccc(=O)n(-c3ccccc3)n2)nnc1SCc1ccc(C)cc1
→ -19	-7	107	-2.6	99	i	0.99
> COc1ccc(N2CC(NC(=O)N(C)CCC#N)CC2=O)cc1 (stereo not given)
→ 10	8	178	nt	98	i	1
> COC(=O)c1sc2nc(-c3ccccc3)c3c(c2c1N)CCCC3
→ -9	14	72	-2.7	107	i	0.95
> CC(C)C[C@H](NC(=O)OC(C)(C)C)c1nnc(SCc2cccc(F)c2)o1
→ -9	-48	85	-0.2	100	i	0.76
> COc1ccc(OCCNC(=O)/C=C/c2ccc([N+](=O)[O-])cc2)cc1
→ -8	24	148	-1.8	104	i	0.99
> O=C(Nc1ccc(S(=O)(=O)NC2CCCCC2)cc1)c1ccc(Br)o1
→ -10	13	102	-1.7	103	i	1.1
> CN(C)C(=O)CSc1nnc2sc3ccccc3n12
→ -9	nt	nt	-3.8	nt	i	0.97
> Cc1nn(-c2cc(N3CCOCC3)ccc2N)c(=O)c2ccccc12
→ 12	-6	51	-0.4	100	i	0.96
> Oc1ccc(/C=N/N2CCN(c3ccccn3)CC2)cc1
→ nt	nt	nt	nt	98	i	0.78
> COC(=O)c1ccc(Cn2cnc3c(cnn3-c3ccc(Cl)cc3)c2=O)o1
→ -1	21	106	-3.5	55	i	0.85
> COc1ccccc1C(O)(C(=O)NN(C)c1ccccc1)c1ccccc1OC
→ 6	nt	nt	-0.4	100	i	1.1
> COc1ccc(N2CC(C(=O)Nc3cc(C)on3)CC2=O)cc1 (stereo not given)
→ 13	nt	nt	-0.8	104	i	0.82
> Cn1c2ccccc2c2ncn(Cc3ccco3)c(=O)c21
→ -7	9	59	-1.5	100	i	0.92
> CC1COC2C(O1)N(S(C)(=O)=O)CCN2S(C)(=O)=O (stereo not given)
→ -13	-73	106	0.1	105	i	0.95
> COCCCNc1nc2c(-c3cccc(C(F)(F)F)c3)nnn2c2ccccc12
→ -1	nt	nt	nt	101	i	0.83
> COc1ccc(CNc2nc3ccccc3n2Cc2ccc(C)cc2)cc1OC
→ -5	57	117	-0.7	109	i	1
> COc1ccc2[nH]cc(CCNC(=O)C3CCCO3)c2c1 (stereo not given)
→ 6	nt	nt	nt	96	i	1.1
> C/C(N)=C(/C#N)C(=O)CSc1nnc(Nc2cccc(C)c2C)s1
→ -5	nt	nt	-2.0	99	i	0.98
> COc1ccc(S(=O)(=O)c2cnc3ccc(OC)cc3c2N2CCC3(CC2)OCCO3)cc1
→ 2	nt	nt	0.0	99	i	0.85
> CCN(CC)CC#CC(O)(c1ccccc1)c1ccccc1
→ -3	-41	95	nt	97	i	0.72
> C=CCn1c(SCC(=O)Nc2ccc(C(=O)OCC)cc2)nnc1-c1cccs1
→ -4	-48	93	0.5	99	i	0.9
> Cc1ccc(NC(=O)CN(C)C(=O)c2ccc(Cl)c([N+](=O)[O-])c2)cc1
→ -7	nt	nt	-0.1	100	i	1.2
> CCS(=O)(=O)/N=C(\N)c1ccccc1
→ 3	46	68	-2.1	-6	i	1.1
> CC(=O)Nc1ccc(NC(=O)c2c([N+](=O)[O-])c(C(C)(C)C)nn2C)cc1
→ nt	nt	nt	nt	103	i	0.83
> N=c1sccn1CC(=O)Nc1cccc(S(=O)(=O)N2CCCCCC2)c1
→ 9	nt	nt	nt	92	i	1
> c1ccc(OCCOc2ncnc3ccccc23)cc1
→ -14	12	112	-1.5	102	i	1
> COC(=O)/C(C#N)=C/c1cc(C)sc1C
→ nt	nt	nt	nt	104	i	0.96
> COc1ccc(/C=C/C(=O)c2ccccc2O)cc1
→ -10	23	64	-1.8	107	i	0.9
> CCCCC(C)(O)C/C=C/[C@H]1[C@H](O)CC(=O)[C@@H]1CCCCCCC(=O)OC (stereo not given in full)
→ -5	33	122	-2.1	52	i	0.65
> Cc1ccc(C(C)NC(=O)/C(C#N)=C\c2c(C)[nH]c3ccccc23)cc1 (stereo not given)
→ -3	4	148	-0.5	105	i	0.8
> COC(=O)c1ccc(C(=O)OC)c(NC(=S)N2CCN(c3ccccn3)CC2)c1
→ 0	nt	nt	nt	97	i	0.91
> Cc1ccc(C(=O)ONc2ccc(N=O)cc2)cc1
→ -10	44	104	-2.6	96	i	0.91
> CC(C)C[C@H](NC(=O)c1[nH]cnc1C(=O)Nc1ccccc1)C(=O)OC(C)(C)C
→ nt	nt	nt	nt	101	i	0.86
> CCOc1ccc(C(c2nnnn2Cc2ccccc2)N2CCN(C(=O)c3ccco3)CC2)cc1 (stereo not given)
→ -9	-20	181	0.3	nt	i	1
> Cc1ccccc1CS(=O)(=O)CCC(=O)NCCN1CCN(c2cccc(Cl)c2)CC1
→ 8	nt	nt	-2.4	130	nt	nt
> Cc1ccc(Cc2cnc(NC(=O)/C(C#N)=C/c3ccc(-c4cccc([N+](=O)[O-])c4)o3)s2)cc1
→ -3	35	156	0.3	89	i	0.35
> CCCn1nnc(NC(=O)/C=C/c2ccco2)n1
→ nt	nt	nt	nt	102	i	1.1
> O=C(Cc1ccc([N+](=O)[O-])cc1)c1c(O)cc(O)cc1O
→ nt	nt	nt	nt	97	i	1
> N/C(CN1CCCC1=O)=N\OC(=O)c1ccc(Cl)cc1
→ -9	0	60	-2.0	114	i	0.93
> CCN(CC)CCNC(=O)c1ccc(Sc2ccc(Cl)cc2)c(NC(C)=O)c1
→ -4	nt	nt	nt	105	i	0.89
> Cn1nc(C(=O)OCc2ccccc2F)c2ccccc2c1=O
→ -5	nt	nt	nt	102	i	1.1
> Cn1nc(C(=O)Nc2cccc(S(N)(=O)=O)c2)c2ccccc2c1=O
→ nt	nt	nt	nt	102	i	0.95
> NNC(=O)CNC(c1ccccc1)c1cc(Br)ccc1NC(=O)c1ccc(Br)cc1 (stereo not given)
→ -4	12	33	-1.6	99	i	1

# Other compounds.
# Order of results – PKD1 kinase inh	INS promoter inh	INS promoter inh cell count	GALR2 ag	RGS16-Gao HTS	HSV replic up	HSV replic up primary fold
> CSc1cccc(NC(=O)C2CCCN(S(=O)(=O)c3cnc[nH]3)C2)c1 (stereo not given)
→ -7	nt	nt	-1.2	89	i	1.1
> Clc1ccc(C2CC(c3cccs3)n3ncnc3N2)cc1Cl (stereo not given)
→ -12	nt	nt	0.4	103	i	0.67
> CCC(C)NCCOCCSc1ccc(Cl)cc1 (stereo not given)
→ -1	34	125	-1.7	107	i	0.83
> COc1ccc(N2CCN(C(=O)CCNC(=O)Cn3ccc4ccccc4c3=O)CC2)cc1
→ 2	nt	nt	nt	100	i	1
> COc1cccc(NC(=O)CCN2C(=O)c3ccccc3S2(=O)=O)c1
→ -4	-4	124	-0.2	97	i	1
> COc1cccc(OC)c1C(=O)NC(=S)NNC(=O)[C@H]1C[C@@H]1c1ccccc1
→ nt	nt	nt	nt	104	i	1
> O=C(NC1CCCCC1)NC1CC2CCC(C1)N2C(=S)NCc1ccco1 (stereo not given)
→ 0	nt	nt	-3.2	101	i	0.87
> COc1ccc(NC(=O)CN2CCC3(O)CCCCC3C2c2cc(OC)ccc2OC)cc1 (stereo not given)
→ -4	0	78	-2.2	132	i	0.95
> CCOC(=O)c1c(N)c(C#N)c2n1CCCC2
→ -5	8	105	-3.1	96	i	0.85
> Cn1c(COc2ccc([N+](=O)[O-])cc2)nnc1SCC(N)=O
→ -7	-13	102	nt	102	i	0.91
> O=C1C2C3c4ccccc4C(c4ccccc43)[C@@H]2C(=O)N1c1nc(-c2ccccc2)cs1 (stereo not given in full)
→ -5	36	148	-1.4	93	i	0.96
> CCn1c(SC(C)C)nnc1C1CCN(S(=O)(=O)c2ccc(OC)cc2)CC1
→ 7	-18	61	-4.2	94	i	0.92
> O=C(Nc1cccc(C(F)(F)F)c1)c1cc2ncc(Br)cn2n1
→ -6	17	46	-0.6	14	i	0.94
> CC1=NNC(=O)C1CCC(=O)N/N=C/c1ccc(C)cc1 (stereo not given)
→ nt	nt	nt	nt	104	i	0.86
> Cc1nn(-c2ccc3nnc(Br)n3n2)c(C)c1Br
→ -3	34	95	-2.9	104	i	1.1
> O=c1/c(=C/c2ccccn2)sc2n1CN(c1ccccc1)CN=2
→ 7	-27	123	-0.1	52	i	0.96
> O=C1COC(c2ccccc2)C2CCCCN12 (stereo not given)
→ 2	-100	186	0.1	103	i	0.99
> COc1ccc(/C=C/C(=O)c2cc3c(cc2N)OCO3)cc1
→ 1	-40	81	nt	98	i	0.7
> Cc1ccccc1-n1c(=O)cc(NCc2ccc3c(c2)OCO3)[nH]c1=O
→ -6	-23	77	0.1	106	i	0.89
> COc1ccc(OC)c(NC(=O)COC(=O)/C=C/c2c(C)nn(C3CCS(=O)(=O)C3)c2Cl)c1 (stereo not given)
→ -1	-32	87	-1.3	167	i	0.94

# Six entries from above, ordered by molecular weight, rising:
# Order of results – PKD1 kinase inh	INS promoter inh	INS promoter inh cell count	GALR2 ag	RGS16-Gao HTS	HSV replic up	HSV replic up primary fold
> CCC(C)NCCOCCSc1ccc(Cl)cc1 (stereo not given)
→ -1	34	125	-1.7	107	i	0.83
> COc1ccc(/C=C/C(=O)c2cc3c(cc2N)OCO3)cc1
→ 1	-40	81	nt	98	i	0.7
> Cn1c(COc2ccc([N+](=O)[O-])cc2)nnc1SCC(N)=O
→ -7	-13	102	nt	102	i	0.91
> Clc1ccc(C2CC(c3cccs3)n3ncnc3N2)cc1Cl (stereo not given)
→ -12	nt	nt	0.4	103	i	0.67
> O=C(NC1CCCCC1)NC1CC2CCC(C1)N2C(=S)NCc1ccco1 (stereo not given)
→ 0	nt	nt	-3.2	101	i	0.87
> COc1ccc(NC(=O)CN2CCC3(O)CCCCC3C2c2cc(OC)ccc2OC)cc1 (stereo not given)
→ -4	0	78	-2.2	132	i	0.95

# (cont.)
# Order of results – PKD1 kinase inh	INS promoter inh	INS promoter inh cell count	GALR2 ag	RGS16-Gao HTS	HSV replic up	HSV replic up primary fold
> CC(C)NC(=O)COC(=O)c1ccc(S(=O)(=O)N2CCCC2)cc1
→ -1	40	84	nt	95	i	1
> CC(C)Oc1nc(-c2ccccc2O)nc2ccccc12
→ 2	-21	97	-1.9	87	i	0.92
> Cc1nc2sccc2c(=O)n1-c1cccc(Cl)c1
→ 2	nt	nt	-2.5	99	i	0.92
> COc1ccc(NC2=CC(c3cccc(OC)c3)N(c3ccc(OC)cc3)C2=O)cc1 (stereo not given)
→ -6	16	105	-1.7	95	i	0.97
> COc1ccc2cc3c(N)nn(C(=O)c4ccc(F)cc4)c3nc2c1
→ nt	nt	nt	nt	101	i	0.62
> FC(F)Oc1ccc(/C=N/c2c(-c3ccc(OC(F)F)cc3)nc3n2CCS3)cc1
→ -13	-362	53	-0.1	103	i	1

# Screening data as filed in PubChem.
